# HPGD block: inhibitors of human 15-hydroxyprostaglandin dehydrogenase (HPGD) | AID 894 | 150,000 compounds, 4.3% hits | P15428 | purified HPGD, NADH fluorescence kinetic, PGE2 substrate | Potency, µM, inactives show at the top dose activity change, negative = inhibition, actives largely listed as inhibitors; active = well fitted inhibition curve with a large enough effect (not every such curve was filed as active); inconclusive = small, poorly fitted or top-dose-only effect, or another doubt; inactive = no such curve, though single readings can be large or run the other way;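 note: top concentration of the series not given in the record; plate controls included wells without enzyme; inactives centre near -10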
# Target sequence (P15428 whole entry, looked up): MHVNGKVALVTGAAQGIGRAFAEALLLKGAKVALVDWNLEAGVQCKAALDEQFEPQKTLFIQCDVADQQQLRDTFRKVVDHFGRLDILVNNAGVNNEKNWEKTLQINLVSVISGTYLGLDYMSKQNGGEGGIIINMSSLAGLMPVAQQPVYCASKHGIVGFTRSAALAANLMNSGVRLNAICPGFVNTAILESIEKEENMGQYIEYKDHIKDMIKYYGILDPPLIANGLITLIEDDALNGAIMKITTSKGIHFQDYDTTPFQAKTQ
#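 20 nM HPGD preincubated 15 min at room temperature with compound in 50 mM Tris-HCl pH 8, 0.01% Tween 20. Started with 1 mM NAD+ and 30 uM prostaglandin E2; NADH fluorescence (360/450 nm) read 5 times over 30-s intervals, last minus first.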
# An asterisk follows results filed as active; ? = inconclusive; & = joins results of further samples. % is set by controls: 0 for no effect and ±100 for the full control effect; potency is the fitted concentration of half-maximal effect.
canonical_smiles | HPGD block
COc1ccc(NC(=O)CSc2ccc(-c3ccccn3)nn2)cc1OC | -14%
Clc1ccc(-c2nnc(SCc3ccon3)o2)c(Cl)c1 | ?
COc1nc(NCc2cccnc2)nc(NC2CCCCC2)n1 | 1%
COc1cc(SC#N)ccc1N=Cc1c(C)[nH]n(-c2ccc(C)c(C)c2)c1=O | -15%
O=C1CSC(c2ccccc2)N1CC12CC3CC(CC(O)(C3)C1)C2 (stereo not drawn) | -10%
COc1cc(/C=C/C(=O)OCC(=O)NCc2cccs2)ccc1OC(F)F | ?
Cc1[nH]c2ccc(-c3nnc(SCC(=O)c4ccc(F)cc4)o3)cc2c1C | -20%
CCC(C)N1C(=O)CCC1C(=O)N1CCN(c2ccc(F)cc2)CC1 (stereo not drawn) | -13%
CC1=C(C(=O)N(C)C)C(c2ccc(Cl)c(Cl)c2)NC(=O)N1 (stereo not drawn) | -11%
CCOc1ccc(C2=C/C(=C/c3cccnc3)C(=O)O2)cc1 | -6%
COc1cccc(NC(=O)C(Cc2ccccc2)NC(=O)C2CCC(C)CC2)c1 (stereo not drawn) | -4%
CN(C)C(=O)COC(=O)c1cc(Cl)cc(Cl)c1N | ?
O=[N+]([O-])c1cc(Cl)ccc1Sc1cccc2cccnc12 | -6%
CC(=O)c1cc(C#N)c(SCCC(C)C)nc1C | -10%
Cc1cc(C)n(-c2nc3c(c(=O)[nH]c(=O)n3C)n2C)n1 | -9%
CCOC(=O)C1C(=O)CC(C)(O)C(C(=O)OCC)C1c1cccc(OC)c1 (stereo not drawn) | -9%
COc1ccccc1-n1cnnc1SCC(=O)Nc1ncc(Cl)cc1Cl | -4%
CCOc1cc(CNc2ccccc2)cc(Br)c1OCc1ccccc1F | -14%
COC(=O)[C@@]1(C)C[C@@H]1[C@@H](NC(=O)[C@@]1(C)C[C@@H]1[C@@H](NC(=O)[C@@]1(C)C[C@@H]1[C@@H](NC(=O)[C@@]1(C)C[C@@H]1[C@@H](NC(=O)OCc1ccccc1)c1ccccc1)c1ccccc1)c1ccccc1)c1ccccc1 | -2%
CCC1CCCCN1C(=O)CSc1nnc(-c2ccc(Cl)cc2)o1 (stereo not drawn) | -18%
CCOC(=O)c1cc2sccc2n1Cc1ccc(C#N)cc1 | -8%
COc1cc2cc(CN(Cc3nnnn3Cc3ccco3)C3CCCCC3)c(=O)[nH]c2cc1OC | ?
Clc1ccc2c(c1)C(N1CCNCC1)=Nc1ccccc1O2 | -16%&-11%&-15%&-9%
O=C(COC(=O)c1ccc(S(=O)(=O)N2CCCC2)cc1)NCc1ccc(Cl)cc1 | -7%
NC1(C(=O)O)CCc2cc(C(=O)O)ccc21 (stereo not drawn) | -18%
Cc1cc(C(=O)CSc2nnc3ccccn23)c(C)n1-c1ccccc1 | -10%
Cc1occc1C(=O)NC(C)c1ccc2c(c1)OCO2 (stereo not drawn) | -15%
Cc1c(NC(=O)c2ccc(Br)o2)cccc1C(=O)O | -3%
CCOC(=O)NC(=O)/C(C#N)=N/Nc1ccc(F)cc1 | -27%
CCC(C)NC(=O)c1cc(-c2ccc(OC)cc2)on1 (stereo not drawn) | -15%

# In a second layout: 4 of the compounds above.
NC1(C(=O)O)CCc2cc(C(=O)O)ccc21 (stereo not drawn)
  HPGD block: -18%

COc1ccc(NC(=O)CSc2ccc(-c3ccccn3)nn2)cc1OC
  HPGD block: -14%

O=C1CSC(c2ccccc2)N1CC12CC3CC(CC(O)(C3)C1)C2 (stereo not drawn)
  HPGD block: -10%

CC(=O)c1cc(C#N)c(SCCC(C)C)nc1C
  HPGD block: -10%

# The list continues.
canonical_smiles | HPGD block
COc1cc(NC(=O)CSc2nc3ccccc3c(=O)n2C)ccc1NC(=O)c1ccco1 | -19%
COc1ccccc1NS(=O)(=O)c1cccc(C(=O)NN)c1 | -5%
Cc1ccc(CNC(=O)Cn2cccc2C(=O)c2ccccc2)cc1 | -10%
Cn1cc(-c2nnc(-c3ccccc3)o2)c2ccccc21 | ?
CCOC(=O)c1sc(NC(=O)/C=C/c2c(F)cccc2Cl)nc1C | -22%
CCOC(=O)C1=C(NC(=S)NC(=O)c2ccccc2)c2ccccc2CC1C(C)C (stereo not drawn) | -15%
COc1ccc(-c2cc(C(=O)Nc3sc4c(c3C#N)CCCC4)c3ccccc3n2)cc1OC | -22%
Nc1cccc(-n2nncc2-c2ccccc2)c1 | -10%
NC(=O)C1=NOC(CNc2ncc(C(F)(F)F)cc2Cl)C1 (stereo not drawn) | -14%
COc1ccc(Cn2nnnc2C(C(C)C)N2CCc3ccccc32)cc1 (stereo not drawn) | 1%
COc1cc(NC(=O)C/C(C)=N/NC(=O)Cc2ccc(Cl)cc2)c(OC)cc1Cl | -2%
COc1ccccc1S(=O)Cc1ccc(C(=O)O)o1 (stereo not drawn) | -2%
CC1(C)Cc2ccccc2-c2nnc(-c3cccnc3)n21 | 1%
Cc1cccc(NC(=S)NNC(=O)c2csc(C(C)C)c2)c1 | -12%
O=C(c1cccs1)N(C(=O)c1cccs1)c1ccc(Br)cn1 | -18%
CCc1cc(C(=O)NNC(=S)Nc2cc(C)ccc2C)cs1 | -15%
COc1ccc(-n2c(-c3ccc(Br)cc3)nc(=S)c3c2CCCC3)cc1 | 2%
CCOc1ccc(Oc2c(/C=N/NC(N)=O)c(C)nn2-c2ccccc2)cc1 | -8%
Cc1cc(C(F)F)n2ncc(C(=O)N3CCC(C(N)=O)CC3)c2n1 | -11%
COC(=O)[C@@H](N)Cc1ccc(O)c(O)c1 | -13%
O=C(C1CCCCC1)N1CCN=C1SCc1cccnc1 | -11%
O=C(Cc1ccccc1)NCC(=O)OCC(=O)c1cccs1 | -13%
COc1ccc(N(CN2C(=O)C3C4C=CC(C4)C3C2=O)C(=O)c2ccco2)cc1 (stereo not drawn) | -9%
C/C(=N\O)C(=O)NCCN(C)C | 3%
CN1C(=S)SC(/[N+]([O-])=C\c2ccccc2)C1(C)C (stereo not drawn) | -8%
O=C(Cn1c(C(F)(F)F)nc2ccccc21)Nc1ccccc1N1CCOCC1 | -6%
CS(=O)(=O)N(CCc1ccccc1)CC(=O)N1CCc2ccccc2C1 | -5%
O=S(=O)(NCCSc1ccc(Cl)cc1)c1ccc(F)cc1 | -11%
CC(OC(=O)c1cc2sccc2n1C)C(=O)NCc1cccs1 (stereo not drawn) | ?
CCOC(=O)c1nn(-c2ccc(Cl)cc2)c2nnc(Cc3ccccc3)c(=O)n12 | -18%
O=C(c1csnn1)N1CCC2(CCCN(Cc3ccccc3)C2)CC1 | -6%
Cc1cccc(/C=C/C(=O)c2cc(Br)ccc(=O)c2O)c1 | -26%
O=C(CCN1CCCCC1)N/N=C/c1ccc(Br)cc1 | -2%
CCOc1c(OC(C)=O)ccc(/C=C2\N=C(SCC)SC2=O)c1[N+](=O)[O-] | 10µM*
O=C1c2ccccc2CC1Sc1nnc(-c2ccccn2)o1 (stereo not drawn) | ?
COc1cc(OC)c(/C=N/n2c(C)nnc2C)c(OC)c1 | -15%
O=C(CN1CCCCCC1)N1c2ccccc2C=Cc2ccccc21 | -7%
Nc1nc(CSc2nnc(-c3cccc(F)c3)n2-c2ccccc2)nc(N2CCOCC2)n1 | -18%
FC(F)(F)c1cc(-c2ccco2)nc(-n2cnc3ccccc32)n1 | ?
C=CCn1cc(-c2ccc(Cl)cc2)cc(C#N)c1=O | ?
CCS(=O)(=O)N1CCN(C(=O)C(c2ccccc2)c2ccccc2)CC1 | -6%
O/N=C/c1cc(Cl)ccc1OCc1cccc2ccccc12 | -21%
COCCNC(=O)c1ccc(CS(=O)(=O)c2ccc(Cl)cc2)o1 | -1%
COc1ccccc1OCCSc1nc(N)cc(N)n1 | -11%
Cc1ccc(C)c(-n2c(SCC(=O)N3CCCC3)nnc2-c2ccccn2)c1 | -19%
O=C(NCCN1CCN(C(=O)NC2CCCCC2)CC1)NC1CCCCC1 | -2%
O=C(Oc1ccc2ccc(=O)oc2c1)C1CCCCC1 | -28%
O=C(NC1=NCCS1)C1CC(=O)N(c2ccccc2)C1 (stereo not drawn) | 3%
COc1ccc2c(c1)c(=O)c(C(=O)c1ccc(F)cc1)cn2CC(=O)Nc1ccc(F)cc1 | -5%
Cc1ccc(C(=O)NCCSC(C)(C)C)cc1 | -23%

# Continued:
canonical_smiles | HPGD block
Cc1ccc2nc(/C=C/c3cccc(F)c3)ccc2c1 | ?
COc1ccc(NS(=O)(=O)c2ccc(I)cc2)cc1N1CCN(C)CC1 | -22%
Clc1nc(-c2ccccn2)nc2scc(-c3ccccc3)c12 | ?
C=CC1CO1 (stereo not drawn) | 1%
CC1CCc2nn(CC(=O)NC3CCCC3)cc2C1 (stereo not drawn) | ?
O=c1cc(O)n(-c2ccc(F)cc2)c(=S)[nH]1 | 28µM*
CCOc1ccc(C(=S)N2CCOCC2)cc1 | -13%
O=C(CSc1nnc(CNC(=O)c2cccs2)o1)Nc1ccc2c(c1)OCO2 | -4%
COC(=O)c1ccccc1NS(=O)(=O)c1cn(C)c(=O)n(C)c1=O | -3%
COCc1cc(C)nc(SCC(=O)Nc2cc3c(cc2C#N)OCO3)c1C#N | -13%
CCCN(CCC)S(=O)(=O)c1ccc(NC(=O)COc2ccccc2)cc1 | -5%
Cc1cc(S(=O)(=O)N2CCCC2)ccc1OCC(=O)NCc1ccco1 | ?
O=C(NC1CCCCC1)N1CCN(c2ncccn2)CC1 | -6%
Cn1c(SCC(=O)Nc2ccc(NC(=O)c3cccs3)cc2)nnc1-c1ccncc1 | -5%
Cc1nnc(NC(=O)c2c(-c3ccccc3)noc2C)s1 | -6%
O=S(=O)(NC1CCc2ccccc21)c1ccc(S(=O)(=O)N2CCCC2)cc1 (stereo not drawn) | -7%
O=[N+]([O-])c1ccc(N/N=C\c2ccccc2OCc2ccccc2)cc1 | -18%
CCCCc1nc(Cl)c(CO)n1Cc1ccc(-c2ccccc2-c2nn[nH]n2)cc1 | -7%
CCOC(=O)NC(=O)c1cn(CCN(C)C)c(=O)[nH]c1=O | -5%
Cc1ccc(Oc2ccc(C(=O)NC3CCSC3=O)cn2)cc1 (stereo not drawn) | -11%
COc1cc(OC)cc(OCC(O)Cn2cnc3cc(C)c(C)cc32)c1 (stereo not drawn) | -8%
CCOC(=O)C1CCCN(CCCc2ccccc2)C1 (stereo not drawn) | -3%&-15%
CCOC(=O)C(C(=O)Nc1ccccc1C)C1CCCCC1 (stereo not drawn) | -8%
Cc1cccc(OC(=O)NCCOC(=O)N(O)c2ccc(Cl)cc2)c1 | -9%
CCOc1ccc(N(C(=O)Cn2nnc3ccccc32)C(C(=O)NC(C)(C)CC)c2cccn2C)cc1 (stereo not drawn) | -8%
CCOc1ccc(S(=O)(=O)Nc2ccccc2SC)c2cccnc12 | -3%
CC1=CC(c2ccccc2)=Nc2ccc(C)cc2N1 | -4%
CCCCCOC(=O)CC(C(=O)OCCCCC)N1CCCCC1 (stereo not drawn) | -2%
Cc1cccc2c(-c3ccccc3)cc(=O)[nH]c12 | -21%
O=c1oc(-c2cccs2)nc2c1cnn2-c1ccccc1 | ?
C#C[C@]1(OC(C)=O)CC[C@H]2[C@@H]3CCC4=CC(=O)CC[C@@H]4[C@H]3CC[C@@]21C | -6%
Cc1cc(C(=O)COC(=O)c2ccc(O)cc2)c(C)n1CC1COc2ccccc2O1 (stereo not drawn) | -5%
CC1=CC(C)(C)N(S(=O)(=O)c2ccc(F)cc2)c2ccc(C)cc21 | -8%
Cc1ccc(Cn2c(C)cc3c(c2=O)C(c2cccs2)C(C#N)=C(N)O3)cc1 (stereo not drawn) | -6%
CCOc1ccc(-c2noc(CCC(=O)O)n2)cc1 | -9%
Cc1cccc(CSc2nnc(NC(=O)CSc3nnc(C)s3)s2)c1 | ?
CC(OC(=O)c1ccncc1)C(=O)Nc1cc(S(=O)(=O)N2CCCCC2)ccc1Cl (stereo not drawn) | -6%
CCOc1ccc(N(CC(=O)NC2CCCC2)S(=O)(=O)c2c(C)[nH]c(=O)[nH]c2=O)cc1 | -3%
CC1(C)NC(=O)N(CCOc2ccc3c(c2)CCC3)C1=O | -11%
O=c1c2c3c(sc2nc2n1CCCC2)CCC3 | -2%

# Three of the entries above in order of their number in HPGD block, smallest number first:
structure,HPGD block
CC1(C)NC(=O)N(CCOc2ccc3c(c2)CCC3)C1=O,-11%
CC1=CC(C)(C)N(S(=O)(=O)c2ccc(F)cc2)c2ccc(C)cc21,-8%
Cc1ccc(Cn2c(C)cc3c(c2=O)C(c2cccs2)C(C#N)=C(N)O3)cc1 (stereo not drawn),-6%

# The listing continues:
canonical_smiles | HPGD block
CC(C)(C)c1ccc(S(=O)(=O)NCc2ccc(C(=O)N3CCOCC3)cc2)cc1 | -11%
NS(=O)(=O)c1ccc(N=Nc2c(-c3ccccc3)[nH]n(-c3nc(-c4ccccc4)cs3)c2=O)cc1 | -7%
C=COC(=O)CSc1snc(SCC(=O)OC)c1C#N | -12%
C#CC(N)CCC(=O)O (stereo not drawn) | -7%
Cc1cccc(C)c1NC(=O)Cn1c(CN2CCCCC2)nc2ccccc2c1=O | -2%
Cc1ccc(C)c(NC(=O)C(Sc2nc3ccccc3c(=O)n2CC(C)C)c2ccccc2)c1 (stereo not drawn) | -5%
O=c1[nH]c(CN2CCc3ccccc32)nc2scc(-c3cccs3)c12 | -27%
COc1cccc(-n2nnnc2SCC(=O)NC2CCCC2)c1 | -26%
COc1cc(NC(=O)c2cc(C)on2)cc(OC)c1OC | -10%
Cc1cccc(NC(=O)NC(=S)NC(=O)c2ccccc2)c1 | -23%

# Compound activity (PubChem BioAssay)

# Not all compounds are listed, so the mix of outcomes need not match the whole.
